HNF4A DNA FP – change in binding of human HNF4 alpha to DNA; P41235; activity change, % at 10 µM; actives 0.3% (n = 360,000); HNF4a-FITC DNA binding, fluorescence polarization, 1 h; in the data active means activity change above about 30%, passing the limit was not always enough;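 further: controls were the assay level and a saturating level of protein; the project sought stronger binding though the title names inhibitors; some compounds called inactive have numbers as strong as hits; positive values seem to mean higher polarization but the record does not say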
Target sequence (P41235 whole entry, looked up): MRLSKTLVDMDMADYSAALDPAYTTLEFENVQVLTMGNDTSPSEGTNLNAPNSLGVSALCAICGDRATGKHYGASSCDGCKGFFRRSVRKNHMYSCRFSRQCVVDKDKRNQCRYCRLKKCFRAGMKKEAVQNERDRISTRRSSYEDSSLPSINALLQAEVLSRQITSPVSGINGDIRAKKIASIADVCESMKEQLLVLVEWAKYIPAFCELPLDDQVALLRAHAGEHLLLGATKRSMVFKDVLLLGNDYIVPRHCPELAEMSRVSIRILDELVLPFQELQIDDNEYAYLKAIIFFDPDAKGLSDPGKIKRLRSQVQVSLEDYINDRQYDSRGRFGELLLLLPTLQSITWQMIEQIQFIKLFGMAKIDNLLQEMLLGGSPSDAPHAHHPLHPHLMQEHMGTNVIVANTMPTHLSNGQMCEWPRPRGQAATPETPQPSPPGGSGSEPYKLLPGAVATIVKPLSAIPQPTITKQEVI
FGF22 binding – FGF22 (human) thermal shift binding; calls only at 9.99 µM; recombinant FGF22 thermal shift, SYPRO orange fluorescence; percent of sucrose octasulfate shift, DMSO zero; Q9HCT0; AID 651658; actives 1.5% (n = 340,000);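 active means melting point raised past a set limit in the mean and every replicate; three in four hits are not shown here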
Ecoli rRNA inh – inhibits bacterial ribosomal RNA function over humanized ribosomes; E. coli WT GFP vs humanized-ribosome RFP mutants, fluorescence, 24 h; active compounds read low; DMSO median 0, no signal -100; GFP signal change (wild-type ribosome), % (concentration not given with the values); actives 1.6% (n = 350,000);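 active means significant combined selectivity score with lowered wild-type GFP, culture density cut under 30%, mutant RFP and density less affected; inactive means any of these conditions unmet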; further: one replicate is shown; some compounds called inactive have numbers as strong as hits
UCH37 inh – blocks the human deubiquitinase UCH37 | Q9Y5K5 | purified proteasome/UCH37, Ub-AMC cleavage fluorescence | actives 0.33% (n = 330,000) | inhibition, % (concentration not given with the values);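 active means mean of two replicates above 20%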;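 further: 0% = compound-free wells with enzyme and 100% = wells lacking proteasome; stock transfer was 100 nL into about 20 µL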
Target sequence (Q9Y5K5 whole entry, looked up): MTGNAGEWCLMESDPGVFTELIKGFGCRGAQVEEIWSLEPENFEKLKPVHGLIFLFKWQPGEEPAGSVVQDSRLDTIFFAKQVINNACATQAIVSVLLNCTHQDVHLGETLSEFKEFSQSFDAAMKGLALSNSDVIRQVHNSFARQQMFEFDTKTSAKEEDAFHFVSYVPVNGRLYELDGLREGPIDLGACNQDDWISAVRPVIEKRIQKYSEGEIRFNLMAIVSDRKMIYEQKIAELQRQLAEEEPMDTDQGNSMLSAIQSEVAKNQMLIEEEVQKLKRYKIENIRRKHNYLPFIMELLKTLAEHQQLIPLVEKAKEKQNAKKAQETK
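Test system – human UCH37 enzyme supplied as purified proteasome complex · Incubation – 30 min preincubation with enzyme, 25 min cleavage at room temperature · Detection – AMC fluorescence from Ub-AMC cleavage, excitation 355 nm, emission 460 nm · Benchmarks – no-proteasome wells (full inhibition) and compound-free wells (no inhibition)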
Beta2AR agonist – human beta-2 adrenergic receptor agonism by FAP | P07550 | Am2.2-beta2AR cells, FAP receptor internalization, flow cytometry; reference of the scale not given here | response, % (no concentration beside the values) | AID 504454 | actives 0.43% (n = 340,000);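 active means response above a set limit, near 3 SD of response in nonfluorescent compounds, cut at about 42% in these data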;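 further: stock transfer was 100 nL into about 11 µL; a reference agonist was the positive control; negative values mostly stem from fluorescent compounds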
E coli growth – E. coli growth inhibition | Escherichia coli growth, OD600, 23 h; active compounds read low | OD600 absorbance (no concentration beside the values) | actives 0.21% (n = 330,000) | AID 1053175;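 active means OD600 absorbance below the run mean of sample wells minus 3.6 SD, in any replicate, cut at about 0.56 in these data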;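 further: stock transfer was 300 nL into about 60 µL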
ALR H2O2 inh – inhibitors of human sulfhydryl oxidase ALR | inhibition, % (no concentration beside the values) | purified ALR, DTT oxidation, H2O2 HRP-luminol luminescence | AID 485317 | P55789 | actives 3.8% (n = 290,000);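 active means mean and each replicate at 75% or more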;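 further: stock transfer was 7.5 nL into about 7.5 µL; 0% = neutral wells and 100% = wells with inactivated enzyme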
Target sequence (P55789 whole entry, looked up): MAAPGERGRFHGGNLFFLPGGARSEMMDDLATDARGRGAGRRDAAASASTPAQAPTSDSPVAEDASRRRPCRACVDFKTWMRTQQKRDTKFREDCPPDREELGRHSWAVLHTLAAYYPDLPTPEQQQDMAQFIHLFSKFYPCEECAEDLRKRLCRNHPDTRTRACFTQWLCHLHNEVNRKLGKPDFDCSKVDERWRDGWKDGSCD
Ecoli rRNA inh OD600 – also measured in Ecoli rRNA inh; calls as there; OD600 change, %; measured here: OD600 growth;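 optical density of the mix in the first replicate; 0 = DMSO median and -100 = no signal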
Ecoli rRNA inh RFP – second read-out of Ecoli rRNA inh, no call of its own (marks repeat the call); RFP signal change, %; measured here: RFP humanized mutant strains;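 first replicate; 0 = DMSO median and -100 = no signal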
* hit, by the source's call; i = inactive; · = no result given; & = joins results of further samples.

SMILES | HNF4A DNA FP | FGF22 binding | Ecoli rRNA inh | Ecoli rRNA inh OD600 | Ecoli rRNA inh RFP | UCH37 inh | Beta2AR agonist | E coli growth | ALR H2O2 inh
COc1ccc(SCCN2CCN(CC(C)C)CCC2=O)cc1 | -0.3 | i | 0 | -6 | -6.0 | 1.2 | 6 | 0.67 | ·
CCn1ncc(NC(=S)NCCc2ccccc2)c1C(N)=O | -2.1 | i | 12 | 8 | 1.8 | 4.5 | -7 | 0.71 | 2
Cc1ccc(CNS(=O)(=O)c2c(C(=O)N3CCCCC3)c(C)n(C)c2C)o1 | 5.9 | i | 5 | 2 | -2.3 | -1.9 | 4 | 0.71 | 18
CC(=O)NCCNC(=O)C1(C)Cc2c(-c3cccc(C(F)(F)F)c3)ccnc2O1 (stereo not drawn) | -1.9 | i | 0 | -10 | -1.2 | · | · | · | ·
O=C(C1CCN(S(=O)(=O)c2cnc[nH]2)CC1)N(CCc1ccccc1)Cc1ccccc1 | 6.8 | i | -8 | -12 | -3.1 | 3.5 | 1 | 0.71 | -26
Cc1ccc2c(CC(=O)NNC(=O)c3ccncc3)coc2c1 | 4.4 | i | 5 | 4 | -2.0 | 1.3 | -6 | 0.66 | 2
CC1CCCC(NS(=O)(=O)c2cc3c(cc2Cl)NC(=O)CO3)C1C (stereo not drawn) | 8.1 | i | -34 | -46 | -2.0 | 2.7 | 3 | 0.79 | 15
O=C(NCc1ccccc1Cl)c1ccc(NC2=NC3CS(=O)(=O)CC3S2)cc1 (stereo not drawn) | 1.7 | i | -5 | 10 | -5.4 | 2.7 | 2 | 0.73 | 9
Cc1ccc(Cl)cc1N1CCN(C(=O)c2cc3c(=O)n(C)c4ccccc4c3n2C)CC1 | 3.4 | i | -10 | -8 | 1.6 | -0.9 | 26 | 0.78 | -2
CC(C(=O)NC1CCCC1)N1CCN(Cc2ccccc2)CC1 (stereo not drawn) | 0.3 | i | 1 | 13 | 0.0 | -1.1 | 4 | 0.67 | 6
CC(=O)c1ccc(NC(=O)CN2C(=O)COc3ccc(Cl)cc32)cc1 | 1.9 | i | -4 | -5 | 1.1 | 1.9 | -8 | 0.68 | 5
Cc1ccc(-c2nnn(CC(=O)N(Cc3ccccc3)C(C(=O)NC3CCCC3)c3ccncc3)n2)o1 (stereo not drawn) | 3.9 | i | · | · | · | 5.7 | 0 | 0.72 | ·
CCSc1nnc(NC(=O)C(Cc2ccccc2)n2cccc2)s1 (stereo not drawn) | -1.1 | i | 7 | 11 | -0.2 | 6.2 | -3 | 0.74 | ·
COc1cc(C(=O)NCCC(=O)NCCN2CCOCC2)cc(OC)c1OC | -0.6 | i | 19 | 6 | -5.0 | 1.4 | 7 | 0.69 | -12
COc1ccc(C)cc1NC(=O)c1cc(S(=O)(=O)N2CCCCC2)ccc1N1CCOCC1 | 0.3 | i | -2 | 11 | -1.8 | 2.1 | 5 | 0.75 | -4
Cc1nc(Nc2ccc(Cl)cc2)c2nnn(Cc3ccccc3)c2n1 | -2.8 | i | 0 | 7 | -1.8 | -67 | -3 | 0.75 | -14
Cc1ccc(C)c(NC(=S)NC(NC(=O)Cc2ccccc2)C(Cl)(Cl)Cl)c1 (stereo not drawn) | 0.2 | · | · | · | · | 1.5 | 1 | 0.8 | 6
COc1ccc2c(c1)[nH]c1c(=O)n(CCN3CCCC3)cnc12 | 1.2 | · | · | · | · | 5.1 | -3 | 0.75 | -3
CC(=O)Nc1ccc(N2C(=O)c3cccc(NC(C)=O)c3C2=O)cc1 | 1.3 | i | 8 | -3 | 1.8 | · | -4 | · | ·
Cc1oc(-c2ccc(Cl)cc2)nc1CN1CCCC(C(=O)N2CCN(C(=O)c3ccco3)CC2)C1 (stereo not drawn) | 1.6 | i | -11 | -10 | 1.5 | 3.1 | -10 | 0.71 | ·
O=C(COc1coc(CN2CCCc3ccccc32)cc1=O)Nc1ccccc1 | 2.5 | i | 5 | 2 | 5.5 | 0.3 | -1 | 0.67 | 50
COc1cc(/C=N/NC(=O)c2cccc([N+](=O)[O-])c2)cc(OC)c1O | 0.1 | i | 6 | 6 | 1.4 | · | -2 | · | 98*
C=CCn1c(=NC(=O)c2cc(Cl)sc2Cl)sc2cc(S(N)(=O)=O)ccc21 | 12 | · | · | · | · | · | -3 | · | -4
N#C/C(=C\c1ccccn1)c1nc2ccccc2s1 | -37 | i | -20 | -10 | -1.9 | -3.5 | -680 | 0.7 | 43
Cc1noc(C)c1COC(=O)CCc1nc2ccccc2c(=O)[nH]1 | -0.5 | · | · | · | · | 2.8 | 10 | 0.7 | -6

The closing 5 records of the part above are carried over, then new ones follow:
SMILES | HNF4A DNA FP | FGF22 binding | Ecoli rRNA inh | Ecoli rRNA inh OD600 | Ecoli rRNA inh RFP | UCH37 inh | Beta2AR agonist | E coli growth | ALR H2O2 inh
O=C(COc1coc(CN2CCCc3ccccc32)cc1=O)Nc1ccccc1 | 2.5 | i | 5 | 2 | 5.5 | 0.3 | -1 | 0.67 | 50
COc1cc(/C=N/NC(=O)c2cccc([N+](=O)[O-])c2)cc(OC)c1O | 0.1 | i | 6 | 6 | 1.4 | · | -2 | · | 98*
C=CCn1c(=NC(=O)c2cc(Cl)sc2Cl)sc2cc(S(N)(=O)=O)ccc21 | 12 | · | · | · | · | · | -3 | · | -4
N#C/C(=C\c1ccccn1)c1nc2ccccc2s1 | -37 | i | -20 | -10 | -1.9 | -3.5 | -680 | 0.7 | 43
Cc1noc(C)c1COC(=O)CCc1nc2ccccc2c(=O)[nH]1 | -0.5 | · | · | · | · | 2.8 | 10 | 0.7 | -6
Cc1cc(NC(=O)CCC(=O)N(CC(=O)NC2CCCC2)c2ccc(F)c(Cl)c2)no1 | 3.0 | i | 1 | -2 | -1.1 | -0.7 | 7 | 0.63 | 5
CCCCS(=O)(=O)N1CCCC(C(=O)NCC2CCCO2)C1 (stereo not drawn) | 2.7 | i | 28 | 17 | 4.4 | -0.1 | -6 | 0.66 | -6
CC(C)c1ccc(NC2CCCN(C(=O)c3ccc(N4CCOCC4)cc3)C2)cc1 (stereo not drawn) | -3.0 | i | -10 | -27 | 4.1 | 0.6 | 2 | 0.69 | 98*
CCC(=O)Nc1ccc(NC(=S)NC(=O)c2cc3ccccc3o2)cc1 | -1.0 | i | 13 | 9 | -1.8 | 1.5 | 3 | 0.7 | -9
CN1C(CC(=O)c2ccccc2)CCCC1CC(O)c1ccccc1 (stereo not drawn) | 3.4 | i | 13 | 13 | 6.3 | 1.4 | 22 | 0.68&0.77 | ·
COc1ccc(NC(=O)c2ccc(S(=O)(=O)N3CC(C)OC(C)C3)cc2)cc1 (stereo not drawn) | 6.3 | i | 2 | 4 | -0.5 | 6.6 | -4 | 0.67 | -5
CC(=O)NC(CCCCNC(=S)NC1CCCCC1)C(=O)O (stereo not drawn) | -5.3 | i | 7 | 3 | 0.8 | -1.3 | 5 | 0.69 | -2
COc1ccc(NC(=O)C(=O)NCC2CCCN2S(=O)(=O)c2cc(C)ccc2C)cc1 (stereo not drawn) | 2.2 | i | -3 | 1 | -0.1 | -0.3 | -9 | 0.62 | -2
O=C(CSc1nnc(COc2ccc(Cl)cc2)n1Cc1ccco1)c1ccccc1F | -1.7 | · | · | · | · | 4.2 | -12 | 0.72 | -3
CCOC(=O)C1(CCOC)CCN(Cc2cccc(OCc3ccccc3)c2)CC1 | 0.3 | i | -15 | -12 | -1.0 | 3.4 | 12 | 0.64 | ·
CCc1ccccc1NC(=S)N(Cc1ccc(C(=O)O)cc1)Cc1ccc(OC)c(OC)c1 | -2.3 | · | 11 | 7 | -1.2 | 3.8 | 3 | 0.7 | -8
CC(C)CC(=O)N1CCC(O)(CS(=O)(=O)c2ccc(Cl)c(Cl)c2)CC1 | -0.1 | i | -1 | -7 | -4.3 | 2.6 | -1 | 0.7 | 1
N#Cc1c(-c2cccs2)nc(SCc2ccc(Cl)cc2)[nH]c1=O | -2.5 | i | -57 | -73 | -29 | 9.8 | 6 | 0.72 | ·
COc1cc([N+](=O)[O-])ccc1NC(=O)CCCOc1cccc(C)c1 | -4.3 | · | · | · | · | 4.8 | -13 | 0.66 | 0
Cc1cccc(NC(=O)C23CCC(C)(C(=O)O2)C3(C)C)c1 (stereo not drawn) | -1.3 | i | -1 | -1 | -3.1 | 3.3 | -12 | 0.67 | -3
Cc1ccc(NS(=O)(=O)c2cccc3cccnc23)c(Br)c1 | 1.8 | i | -3 | 6 | 1.5 | 1.1 | -9 | 0.65 | -10
O=C(C1CCCN(S(=O)(=O)c2cccc3cccnc23)C1)N1CCc2ccccc21 (stereo not drawn) | -1.6 | · | -10 | -40 | -4.3 | 0.8 | 3 | 0.76 | -12
Cc1nc(-c2ccc(NC(=O)c3cccs3)cc2)cs1 | 0.8 | · | · | · | · | -16 | 1 | 0.73 | 4
COc1ccc(S(=O)(=O)Nc2ccc3c(c2)OCCO3)cc1OC | -5.1 | i | -5 | -8 | 0.0 | 3.0 | 10 | 0.69 | -9
Cc1ccc(N2CC(C(=O)N3CCN(c4ccccn4)CC3)CC2=O)cc1 (stereo not drawn) | -8.6 | i | 0 | 3 | -3.1 | · | 1 | · | ·
Cc1ccc(C)c(S(=O)(=O)NCc2ccc(C(=O)N3CCN(C)CC3)cc2)c1 | 0.9 | · | · | · | · | 0.7 | 0 | 0.71 | -3
CC(/C=C/c1ccc(N(C)C)cc1)=N/N=C1/NC(=O)CC(C(=O)Nc2ccc(Cl)cc2)S1 (stereo not drawn) | 29 | i | -6 | -2 | 32 | 0.2 | 2 | 0.71 | ·
Cc1ccc(NC(=S)NC(=O)c2ccccc2)cc1NC(=S)NC(=O)c1ccccc1 | 9.4 | i | 12 | 19 | 3.1 | 2.5 | -2 | 0.7 | -6
O=[N+]([O-])c1cccc(N(CC2CO2)S(=O)(=O)c2ccccc2)c1 (stereo not drawn) | -0.9 | i | -9 | 1 | -2.9 | · | -4 | · | ·
O=C1CC2(CCN(C(=O)COc3ccc(F)cc3)CC2)Oc2ccccc21 | 1.8 | · | -1 | -8 | -0.6 | -20 | 3 | 0.71 | -3

(further entries)
SMILES | HNF4A DNA FP | FGF22 binding | Ecoli rRNA inh | Ecoli rRNA inh OD600 | Ecoli rRNA inh RFP | UCH37 inh | Beta2AR agonist | E coli growth | ALR H2O2 inh
CC(C)NC(=O)c1nc2ccccc2s1 | 2.1 | · | · | · | · | 2.4 | 0 | 0.64 | 0
COc1cccc(C(CC(=O)Nc2cccc3ccccc23)NC(=O)c2ccccc2)c1 (stereo not drawn) | 0.4 | · | · | · | · | 4.4 | 8 | 0.78 | ·
COc1ccc(C(CNC(=O)c2cc3ccccc3o2)N2CCCCC2)cc1 (stereo not drawn) | 1.2 | i | 3 | -4 | 8.4 | -0.4 | -1 | 0.69 | ·
Nc1c(S(=O)(=O)c2ccccc2)cnc2c(-c3ccc(F)cc3)cnn12 | 2.5 | · | · | · | · | -141 | -6 | 0.72 | -13
CCN(CC)S(=O)(=O)c1ccc(N(C)C)c(NC(=O)CC(NC(C)=O)c2ccccc2)c1 (stereo not drawn) | 1.6 | · | · | · | · | 2.1 | -7 | 0.66 | 19
CC1(C(=O)NS(=O)(=O)Cc2ccccc2)CCN1C(=O)C1(c2ccc(Cl)cc2)CCC1 (stereo not drawn) | 5.8 | i | -12 | -3 | 0.6 | · | · | · | ·
CN1CCN(c2ccc([N+](=O)[O-])cc2C(=O)N2CCCCC2)CC1 | -2.7 | i | 11 | 4 | -4.0 | 5.2 | 0 | 0.71 | ·

Compound activity deposited in PubChem by several laboratories.

Only part of the results is shown. The share of hits here may be higher or lower than overall.
